Screens from PubChem BioAssay.
ClpP mod: qHTS Assay for Activators of ClpP; ATP-dependent Clp protease proteolytic subunit (Bacillus subtilis (strain 168)), P80244; purified B. subtilis ClpP, FRET peptide cleavage, 20 min; Potency, µM (series often up to 57.5 µM), inactives show at the top dose activity change, negative = active; 340,000 compounds, 1.9% hits; active = well fitted falling curve with a large enough effect; inconclusive = small, poorly fitted or top-dose-only effect; inactive = no such curve, though single readings can be large or run the other way; further: potency means the concentration at half of the fitted maximal effect; the source files actives as falling curves though it sought activators and does not explain the sign; nearly all actives have a fitted effect of over 65% in size; many hits overshoot -100%
Target sequence (P80244 whole entry, looked up): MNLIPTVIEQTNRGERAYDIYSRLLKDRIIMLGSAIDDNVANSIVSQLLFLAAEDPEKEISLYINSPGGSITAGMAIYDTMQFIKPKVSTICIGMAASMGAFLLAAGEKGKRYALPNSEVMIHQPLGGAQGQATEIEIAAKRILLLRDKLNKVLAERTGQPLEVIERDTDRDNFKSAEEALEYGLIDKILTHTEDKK
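Purified B. subtilis ClpP, 10 microg/mL final in Tris/HCl pH8 with KCl, BSA, glycerol and Tween-20, cleaved an Abz/nitrotyrosine-quenched decapeptide. Fluorescence (ex 320, em 430) was read at 0 and 20 min at room temperature. Delta was normalized to 5.8 microM ADEP and DMSO/no-enzyme controls.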
gsp ag: qHTS for Agonist of gsp, the Etiologic Mutation Responsible for Fibrous Dysplasia/McCune-Albright Syndrome: qHTS | gsp mutant cells, cAMP HTRF, 30 min; control for the full effect not named in the record | Potency, µM (top dose mostly 76.9 µM), for inactives: at the highest dose activation (cAMP increase), actives largely listed as activators | 340,000 compounds, 0.13% hits | AID 624287, 2012; active = well fitted activation curve with a large enough effect; inconclusive = small, poorly fitted or top-dose-only effect, or another doubt; inactive = no such curve, though single readings can be large or run the other way; cell line not stated here;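 further: phosphodiesterase inhibitor Ro 20-1724 added with compounds to block cAMP breakdown; potency means the concentration at half of the fitted maximal effect; nearly all actives have a fitted effect of over 60% in size; about a fifth of the inactives were tested at one dose only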
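Cells stably selected in G418 were plated at 2000/well, grown 16-24 hr, then given compounds in DMSO with the PDE inhibitor […] (300 uM solution added) for 30 min at 37C; cAMP was read by HTRF.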
TRPML1 agonist: qHTS for Agonists of the Human Mucolipin Transient Receptor Potential 1 (TRPML1); activation, % (no concentration beside the values); Mucolipin-1 (Homo sapiens), Q9GZU1; 410,000 compounds, 0.12% hits; TRPML1-expressing cells, Ca2+ dye fluorescence, FDSS; host cell line not named in the record; reference of the full effect not given here; in the data active = activation above about 50%; inconclusive = about 30% to 50%; inactive = below about 30%; further: 0% is about no effect; the text of the record puts the active cut at 80%
Target sequence (Q9GZU1 whole entry, looked up): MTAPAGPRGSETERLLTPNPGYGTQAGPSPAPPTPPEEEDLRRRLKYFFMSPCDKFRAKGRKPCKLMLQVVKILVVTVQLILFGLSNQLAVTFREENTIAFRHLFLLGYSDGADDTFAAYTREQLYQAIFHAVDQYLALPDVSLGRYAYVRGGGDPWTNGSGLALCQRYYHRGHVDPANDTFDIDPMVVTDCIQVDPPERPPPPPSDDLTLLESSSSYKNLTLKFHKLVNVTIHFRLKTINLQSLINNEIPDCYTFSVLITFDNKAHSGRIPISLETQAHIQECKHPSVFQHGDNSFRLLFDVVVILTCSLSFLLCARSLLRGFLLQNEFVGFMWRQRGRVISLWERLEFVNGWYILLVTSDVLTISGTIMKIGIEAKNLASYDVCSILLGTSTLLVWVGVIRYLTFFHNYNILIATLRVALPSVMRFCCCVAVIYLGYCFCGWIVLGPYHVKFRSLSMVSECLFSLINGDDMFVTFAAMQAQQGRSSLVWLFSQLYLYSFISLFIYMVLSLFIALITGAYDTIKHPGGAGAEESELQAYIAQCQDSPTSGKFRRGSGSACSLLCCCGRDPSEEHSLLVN
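Calcium fluorescence on an FDSS kinetic reader gave the read-out. Tet-induced TRPML1-DL cells were plated overnight, dye-loaded (Ca8 with quencher, 45-90 min, room temperature, dark), then read 110 s after compound addition, and again 110 s after 4uM final 54-4 (EC80).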
TRPML1 blocker: qHTS for Inhibitors of the Human Mucolipin Transient Receptor Potential 1 (TRPML1) | TRPML1-inducible cells, Ca2+ dye fluorescence, FDSS; hits give low values; inhibition of EC80 agonist-evoked calcium signal | activity change, negative = inhibition, % (no concentration beside the values) | 390,000 compounds, 0.02% hits; in the data active means activity change below about -50%; inconclusive means about -30% to -50%; inactive means above about -30%;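 further: stimulus is agonist 54-4 at its EC80 concentration; on the % scale 0 is the no-effect control and ±100 the full control effect; compound concentration not given in the record; the text of the record puts the active cut at -80%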
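TRPML1-DL cells, Tet-induced overnight (~16 h, 37 °C) at 1,500 cells/well, were loaded with Ca8 no-wash dye plus quencher for 45-90 min at room temperature. Compounds were pinned during FDSS kinetic reading; agonist 54-4 at EC80 (4 uM final) then added.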
gsp antag: qHTS for Antagonists of gsp, the Etiologic Mutation Responsible for Fibrous Dysplasia/McCune-Albright Syndrome: qHTS | gsp-mutant cells, cAMP HTRF, 30 min; control for the full effect not named in the record | Potency, µM (highest dose often 76.9 µM), inactives show at the top dose activity change, negative = inhibition, most hits filed as inhibitors | 340,000 compounds, 0.4% hits | AID 624288, 2012; active = falling curve of any shape with a large fitted effect; inconclusive = falling curve, mostly with a smaller effect; inactive = flat or rising curve; cell line not stated here;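 further: intracellular cAMP measured with PDE inhibitor Ro 20-1724 present during compound exposure; potency means the concentration at half of the fitted maximal effect; on the % scale 0 is the no-effect control and ±100 the full control effect; nearly all actives have a fitted effect of over 65% in size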
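Measurement of cellular cAMP by homogeneous time-resolved fluorescence following a 30 min compound exposure at 37C. The PDE inhibitor […] was present throughout; the assay buffer was DPBS with 0.05% BSA and 0.005% Tween 20.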
Menin-MLL FL inh: qHTS Assay for Inhibitors Targeting the Menin-MLL Interaction in MLL Related Leukemias: Competition With Fluorescein Labeled MLL-derived Peptide | Fluorescence polarization, fluorescein-MLL peptide displacement from menin | 290,000 tested, under 10 active | FP activity change, % at 61.4 µM; inconclusive = falling polarisation curve, or a change in total fluorescence; inactive = total fluorescence flat and polarisation flat or rising; no compound was filed as active; the % refers to the polarisation; negative = inhibition;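 further: % of control where 0% means no effect; inhibitors lower the polarisation; unlabelled MLL peptide was the positive control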
The depositor's hits bear a star; & = joins results of further samples; [ ] = remark or other dose.

For O=C(CSCc1ccccc1Cl)NNC(=S)Nc1ccccc1 the results were ClpP mod 0.1%, gsp ag -9%, TRPML1 agonist 0.8, TRPML1 blocker 13, gsp antag -14% and Menin-MLL FL inh -1.3.
Screening CCCCn1c(=O)c(CCC(=O)O)nc2ccccc21 returned gsp ag -6%[15.4 µM], TRPML1 agonist -0.4, TRPML1 blocker 6, gsp antag -3% and Menin-MLL FL inh 4.4.
For O=C(NCc1nnc2c(C(F)(F)F)cc(Cl)cn12)c1ccco1 the results were ClpP mod -24%, gsp ag inconclusive, TRPML1 agonist 0.5, TRPML1 blocker 15, gsp antag 21% and Menin-MLL FL inh -1.6.
CS(=O)(=O)c1ccc(NCCN2CCOCC2)c([N+](=O)[O-])c1 was read as gsp ag -4%, TRPML1 agonist -0.3, TRPML1 blocker 9, gsp antag -2% and Menin-MLL FL inh 2.3.
`COc1cc2[nH]c(=O)n(Cc3ccc(C(=O)NC4CCCC4)cc3)c(=O)c2cc1OC` gave ClpP mod -17%, gsp ag 16%, TRPML1 agonist -0.4, TRPML1 blocker 0, gsp antag 10% and Menin-MLL FL inh 1.4.
CCc1ccc2nc(N)sc2c1 was read as ClpP mod 0.5%, gsp ag 0%, TRPML1 agonist 0.6, TRPML1 blocker -2, gsp antag 9% and Menin-MLL FL inh 4.9.
`C=CCOc1cccc(CNCc2cccnc2)c1` gave gsp ag -59%[inhibitor], TRPML1 agonist 0.2, TRPML1 blocker -4, gsp antag 8% and Menin-MLL FL inh -0.3.
Screening CCc1sc(C(=O)Nc2ncccc2C)cc1C returned gsp ag 3%[15.4 µM], TRPML1 agonist 0.5, TRPML1 blocker -3, gsp antag 2% and Menin-MLL FL inh -22.
CCCCCCSc1ccc(-c2nc3ccc(Cl)cn3c2NCc2ccccc2)cc1 was read as ClpP mod -4.0%, gsp ag -81%[inhibitor], TRPML1 agonist -0.6, TRPML1 blocker 22 and gsp antag 10%.
`CC(C)(C)c1ccc(S(=O)(=O)N2CCC(N3CCCCC3)CC2)cc1` gave ClpP mod -8.8%, gsp ag 16%[15.4 µM], TRPML1 agonist -0.9, TRPML1 blocker -20, gsp antag 6% and Menin-MLL FL inh -1.3.
COc1ccccc1N1CCN(CCC(=O)Nc2cccc(F)c2)CC1 was read as ClpP mod -0.3%&0.2%, gsp ag -87%[inhibitor], TRPML1 agonist 0.4&-0.4 and TRPML1 blocker -1&0.
For O=C(NCc1nnc2c(C(F)(F)F)cc(Cl)cn12)c1ccc(Br)o1 the results were gsp ag 13µM*, TRPML1 agonist 0.0, TRPML1 blocker 3 and gsp antag 14%.
For O=C1C=C(O)CC(c2ccco2)C1 (configuration not stated) the results were ClpP mod -4.1%, gsp ag -42%[inhibitor], TRPML1 agonist -0.4, TRPML1 blocker 8, gsp antag -17% and Menin-MLL FL inh -2.1.
`Cc1ccc(NC(=O)Cn2c(=O)n(Cc3ccc4c(c3)OCO4)c(=O)c3ccc(C(=O)NC4CCCCC4)cc32)c(C)c1` gave ClpP mod -2.6%, TRPML1 agonist 0.5 and TRPML1 blocker -15.
`CCOC(=O)CNC(=O)Nc1cc(C(=O)NCc2ccccc2OC)ccc1N1CCCC1` gave ClpP mod -5.0%, TRPML1 agonist -0.8 and TRPML1 blocker 0.
`COc1ccc(NC(=O)C(Cl)=C(Cl)Cl)cn1` gave gsp ag -22%, TRPML1 agonist -0.6, TRPML1 blocker -8, gsp antag -6% and Menin-MLL FL inh -2.2.
`Nc1nc(CSc2nc3ccccc3[nH]2)cs1` gave ClpP mod -1.5%, gsp ag -52%[inhibitor], TRPML1 agonist -0.6, TRPML1 blocker 5, gsp antag 7% and Menin-MLL FL inh 12.
`CCOC(=O)C1(c2csc(N)n2)COC(=O)C1` (configuration not stated) gave ClpP mod -2.3%, gsp ag -4%, TRPML1 agonist -0.6, TRPML1 blocker -27, gsp antag 10% and Menin-MLL FL inh 3.8.
`CCCOc1ccc(N2C(=O)CC(N3CCCC(C(=O)N4CCCC4)C3)C2=O)cc1` (configuration not stated) gave ClpP mod 1.5%, gsp ag -33%[inhibitor], TRPML1 agonist 5.3, TRPML1 blocker 7, gsp antag 3% and Menin-MLL FL inh 9.3.
`Cc1ccc(NC(=O)CCc2ccc(S(=O)(=O)NC3CCCCC3)cc2)cc1` gave ClpP mod 2.5%, gsp ag 30%, TRPML1 agonist 0.0, TRPML1 blocker 31, gsp antag -6% and Menin-MLL FL inh -0.5.

An excerpt from above in order of number of heavy atoms, high to low:
`Cc1ccc(NC(=O)CCc2ccc(S(=O)(=O)NC3CCCCC3)cc2)cc1` gave ClpP mod 2.5%, gsp ag 30%, TRPML1 agonist 0.0, TRPML1 blocker 31, gsp antag -6% and Menin-MLL FL inh -0.5.
COc1ccccc1N1CCN(CCC(=O)Nc2cccc(F)c2)CC1 was read as ClpP mod -0.3%&0.2%, gsp ag -87%[inhibitor], TRPML1 agonist 0.4&-0.4 and TRPML1 blocker -1&0.
`CCOC(=O)C1(c2csc(N)n2)COC(=O)C1` (configuration not stated) gave ClpP mod -2.3%, gsp ag -4%, TRPML1 agonist -0.6, TRPML1 blocker -27, gsp antag 10% and Menin-MLL FL inh 3.8.

Continued:
`C/C(N)=C(\C#N)C(=O)NCCc1ccccn1` gave ClpP mod 2.2%, gsp ag 5%, TRPML1 agonist 0.1, TRPML1 blocker -6, gsp antag 14% and Menin-MLL FL inh 4.0.
`Cc1nn(-c2ccccc2)c2sc(C(=O)NNC(=O)COc3ccccc3)cc12` gave ClpP mod inconclusive, gsp ag 8%, TRPML1 agonist -0.5, TRPML1 blocker -1, gsp antag -12% and Menin-MLL FL inh inconclusive.
Nc1ccc2nc[nH]c2c1 was read as ClpP mod -25%, gsp ag 1%[15.4 µM], TRPML1 agonist 0.7&-0.3, TRPML1 blocker 18 and Menin-MLL FL inh 0.7.
For COc1ccc(S(=O)(=O)N(C)C[C@H]2Oc3ccc(NC(=O)C4CCCCC4)cc3C(=O)N([C@H](C)CO)C[C@@H]2C)cc1 the results were ClpP mod -1.9%, TRPML1 agonist -0.8, TRPML1 blocker -9 and gsp antag -13%.
`COCCCNC(=O)Cn1c(=O)n(CC(=O)NCCc2ccc(OC)c(OC)c2)c(=O)c2sccc21` gave ClpP mod 0.3%, gsp ag 5%, TRPML1 agonist 0.3, TRPML1 blocker -10, gsp antag 0% and Menin-MLL FL inh 0.8.
Screening Cc1cc(C(=O)NNC(=O)Cc2ccc(Cl)cc2)c(C)o1 returned gsp ag -7%[15.4 µM], TRPML1 agonist 2.3, TRPML1 blocker 6 and gsp antag 12%.
For Cc1cc(C)cc(NC(=O)N2CCC(C(=O)c3ccc(F)cc3)CC2)c1 the results were gsp ag 8%[15.4 µM], TRPML1 agonist -0.1, TRPML1 blocker -9, gsp antag -17% and Menin-MLL FL inh 2.2.
For COc1cc(C(=O)Nc2c(C(=O)O)[nH]c3ccc(C)cc23)cc(OC)c1OC the results were ClpP mod -4.0%, gsp ag -6%, TRPML1 agonist 2.2, TRPML1 blocker -7, gsp antag 12% and Menin-MLL FL inh -14.
Screening CCCCOc1ccc(NC(=O)c2cc3c(n(-c4ccc(Cl)cc4)c2=O)CCCC3=O)cc1 returned ClpP mod 0.3%, TRPML1 agonist -0.2 and TRPML1 blocker 1.
Screening CC(=O)c1ccc(N2CCN(C(=O)C3CCN(S(=O)(=O)c4ccc(F)cc4)CC3)CC2)cc1 returned ClpP mod -16%, gsp ag -13%, TRPML1 agonist -0.4, TRPML1 blocker 27 and gsp antag inconclusive.
Screening O=C(c1ccc(Cl)c([N+](=O)[O-])c1)N(Cc1ccc(F)cc1)C1CCS(=O)(=O)C1 (configuration not stated) returned ClpP mod -0.3%, gsp ag 3%[15.4 µM], TRPML1 agonist -0.3, TRPML1 blocker -13, gsp antag -3% and Menin-MLL FL inh 2.7.
`Cc1cccc(-c2nc(CCNC(=O)Cc3ccccc3)cs2)c1` gave ClpP mod -8.5%, TRPML1 agonist 3.4 and TRPML1 blocker 32.
`O=C(CCCN1C(=O)/C(=C\c2ccccc2)SC1=S)Nc1ccc(C(=O)O)cc1` gave gsp ag 14%, TRPML1 agonist 1.4, TRPML1 blocker 2, gsp antag -4% and Menin-MLL FL inh 4.3.
c1ccc(-c2cn3nc4c(nc3n2)CCCC4)cc1 was read as ClpP mod -27%, gsp ag 15%, TRPML1 agonist 2.9, TRPML1 blocker 35, gsp antag 14% and Menin-MLL FL inh inconclusive.
For COc1ccc(S(=O)(=O)N2CCN(C(=S)NCC3CCCO3)CC2)cc1OC (configuration not stated) the results were ClpP mod 0.8%, gsp ag -27%, TRPML1 agonist -0.3, TRPML1 blocker 11, gsp antag 4% and Menin-MLL FL inh 2.1.
Screening CCN1CCN(C(c2ccc(OC)cc2)c2nnnn2Cc2ccc3c(c2)OCO3)CC1 (configuration not stated) returned ClpP mod -1.2%, gsp ag -4%, TRPML1 agonist 0.9, TRPML1 blocker -2, gsp antag 1% and Menin-MLL FL inh -5.6.
`Cc1ccc(-c2cc(-c3nnc(SCC(=O)NC(C)C(C)C)n3N)c3ccccc3n2)cc1` (configuration not stated) gave ClpP mod inconclusive, gsp ag 20%, TRPML1 agonist 2.6, TRPML1 blocker -15, gsp antag -13% and Menin-MLL FL inh 1.5.
Screening CNC(=O)c1nnsc1S(=O)(=O)c1ccc(Cl)cc1 returned gsp ag 1%, TRPML1 agonist 2.6, TRPML1 blocker -28, gsp antag -1% and Menin-MLL FL inh 0.4.
CCn1c(=O)sc2cc(NS(=O)(=O)c3ccc(F)c(C)c3)ccc21 was read as ClpP mod 0.0%, TRPML1 agonist -0.1 and TRPML1 blocker 12.
For O=C(CN1C(=O)C2C3C=CC(C3)C2C1=O)N1CC=C(c2ccccc2)CC1 (configuration not stated) the results were ClpP mod inconclusive, gsp ag -30%, TRPML1 agonist -0.1, TRPML1 blocker 5, gsp antag 5% and Menin-MLL FL inh 2.5.
Screening COc1ccc(-c2csc3ncn(Cc4ccccc4)c(=O)c23)cc1 returned ClpP mod -17%, gsp ag -9%, TRPML1 agonist 1.5, TRPML1 blocker -8, gsp antag -3% and Menin-MLL FL inh 4.0.
Cc1ccc(C)c(S(=O)(=O)N2CCN(CC(=O)Nc3ccc([N+](=O)[O-])cc3)CC2)c1 was read as ClpP mod -3.4%, gsp ag -52%[inhibitor], TRPML1 agonist 0.8, TRPML1 blocker 4, gsp antag -14% and Menin-MLL FL inh -0.9.

Rows were taken by chance; 2.1% or so of the library scored in one or more.
